Bioassay records: PubChem BioAssay, National Center for Advancing Translational Sciences (NCATS)
TRPV1 PAM = human TRPV1 potentiation; TRPV1-expressing cells, Fluo-8 calcium influx, capsaicin EC20 potentiation; host cell line not named in the record; control for the full effect not named in the record; Q8NER1; potentiation, % at 8.33 µM; 320,000 compounds, 0.02% hits; AID 540277; active means potentiation above 80%; inconclusive means 30% to 80%; inactive means below 30%; note: 0% is about no effect
Target sequence (Q8NER1 whole entry, looked up): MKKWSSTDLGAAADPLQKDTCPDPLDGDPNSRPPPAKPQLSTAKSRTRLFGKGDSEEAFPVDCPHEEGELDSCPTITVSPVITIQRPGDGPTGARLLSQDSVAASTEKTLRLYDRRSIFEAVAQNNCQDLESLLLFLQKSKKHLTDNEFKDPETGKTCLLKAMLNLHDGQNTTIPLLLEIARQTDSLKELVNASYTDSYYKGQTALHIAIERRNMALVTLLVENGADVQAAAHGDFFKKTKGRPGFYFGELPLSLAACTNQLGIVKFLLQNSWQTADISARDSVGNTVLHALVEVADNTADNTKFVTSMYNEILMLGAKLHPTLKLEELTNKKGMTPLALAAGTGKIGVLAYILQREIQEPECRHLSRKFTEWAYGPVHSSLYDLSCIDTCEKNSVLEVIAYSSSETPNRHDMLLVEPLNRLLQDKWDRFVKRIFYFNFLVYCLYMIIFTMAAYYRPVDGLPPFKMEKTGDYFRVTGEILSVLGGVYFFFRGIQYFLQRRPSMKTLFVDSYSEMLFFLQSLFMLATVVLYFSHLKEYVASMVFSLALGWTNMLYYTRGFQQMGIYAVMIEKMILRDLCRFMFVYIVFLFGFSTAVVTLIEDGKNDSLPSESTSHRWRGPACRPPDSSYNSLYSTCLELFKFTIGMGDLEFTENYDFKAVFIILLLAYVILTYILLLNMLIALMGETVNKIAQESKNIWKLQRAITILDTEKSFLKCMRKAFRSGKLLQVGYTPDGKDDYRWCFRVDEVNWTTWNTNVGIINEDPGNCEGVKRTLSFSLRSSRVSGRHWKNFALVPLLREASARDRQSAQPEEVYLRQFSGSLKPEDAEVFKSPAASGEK
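TRPV1-expressing cells were cultured overnight at 35.5C and loaded with Fluo-8 calcium dye for 40 to 90 min at room temperature. After a 10 s baseline, compound was added and calcium influx was read kinetically for 3 min (ex 480/em 520 nm).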
gsp agonist = agonists of gsp mutant (McCune-Albright syndrome) | Potency, µM (highest dose often 76.9 µM), inactives show at the top dose activation (cAMP increase), most hits filed as activators | gsp mutant cells, cAMP HTRF, 30 min; control for the full effect not named in the record | 340,000 compounds, 0.13% hits; active = well fitted activation curve with a large enough effect; inconclusive = small, poorly fitted or top-dose-only effect, or another doubt; inactive = no such curve, though single readings can be large or run the other way; cell line not stated here;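 note: phosphodiesterase inhibitor Ro 20-1724 added with compounds to block cAMP breakdown; potency is the fitted concentration of half-maximal effect; nearly all actives have a fitted effect of over 60% in size; about a fifth of the inactives were tested at one dose only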
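Cells stably selected in G418 were plated at 2000/well, grown 16-24 hr, then given compounds in DMSO with the PDE inhibitor […] (300 uM solution added) for 30 min at 37C; cAMP was read by HTRF.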
D2 PAM = human D2 receptor positive allosteric modulation. DiscoveRx D2 beta-arrestin cells, luminescence, 90 min; 100% = 57 uM dopamine signal. potentiation, % (test concentration not listed). 360,000 compounds, 0.23% hits; active = potentiation of 50% or more; inconclusive = 30% to 50%; inactive = 30% or less;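 note: compound concentration not given in the record; tested on top of an EC20 dose of dopamine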
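PathHunter beta-arrestin assay in DiscoveRx D2 cells. Compounds were added with an EC20 of dopamine (50 nM final) for 90 min at 37 deg C. Luminescence was read 1 h after detection reagent, with 57 uM dopamine as the EC100 control.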
Sfp PPTase inh = inhibitors of Bacillus subtilis Sfp phosphopantetheinyl transferase; Q9F4F7; Biochemical Sfp PPTase activity, qHTS; Potency, µM, without a hit: max response, negative = inhibition, usual class: inhibitors; 310,000 compounds, 3.5% hits; AID 1490; active = well fitted inhibition curve with a large enough effect; inconclusive = small, poorly fitted or top-dose-only effect, or another doubt; inactive = no such curve, though single readings can be large or run the other way;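 note: the enzyme is Sfp with the accession as filed and its product quenches rhodamine fluorescence; potency is the fitted concentration of half-maximal effect; 0% = enzyme reaction without inhibitor and -100% = no enzyme wells; top concentration of the series not given in the record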
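Fluorescence-quenching assay with 15 nM Sfp, 5 uM rhodamine-CoA and 12.5 uM BHQ-2-labelled ybbR peptide in pH 7.6 Hepes/MgCl2 buffer. Enzyme was pre-incubated with compound for 15 min at room temperature. Rate was taken from the 30-min fluorescence change (525/598 nm).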
Menin MLL FP FL = inhibitors of human menin-MLL interaction, wild-type MLL peptide | Fluorescence polarization, fluorescein-MLL peptide displacement from menin | FP activity change, % at 61.4 µM | 290,000 tested, under 10 active | AID 1766; inconclusive = falling polarisation curve, or a change in total fluorescence; inactive = total fluorescence flat and polarisation flat or rising; no compound was filed as active; the % refers to the polarisation; negative = inhibition;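 note: % of control where 0% means no effect; inhibitors lower the polarisation; unlabelled MLL peptide was the positive control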
gsp antag = antagonizes gsp, the McCune-Albright syndrome mutation; gsp-mutant cells, cAMP HTRF, 30 min; control for the full effect not named in the record; Potency, µM (top dose mostly 76.9 µM), for the others: at the highest dose activity change, negative = inhibition, hits mostly inhibitors; 340,000 compounds, 0.4% hits; active = falling curve of any shape with a large fitted effect; inconclusive = falling curve, mostly with a smaller effect; inactive = flat or rising curve; cell line not stated here;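 note: intracellular cAMP measured with PDE inhibitor Ro 20-1724 present during compound exposure; potency is the fitted concentration of half-maximal effect; % is set by controls: 0 for no effect and ±100 for the full control effect; nearly all actives have a fitted effect of over 65% in size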
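Measurement of cellular cAMP by homogeneous time-resolved fluorescence following a 30 min compound exposure at 37C. The PDE inhibitor […] was present throughout; the assay buffer was DPBS with 0.05% BSA and 0.005% Tween 20.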
ClpP mod = qHTS Assay for Activators of ClpP; 340,000 compounds, 1.9% hits; Potency, µM (series often up to 57.5 µM), inactives show at the highest dose activity change, negative = active; purified B. subtilis ClpP, FRET peptide cleavage, 20 min; active = well fitted falling curve with a large enough effect; inconclusive = small, poorly fitted or top-dose-only effect; inactive = no such curve, though single readings can be large or run the other way; note: potency is the fitted concentration of half-maximal effect; the source files actives as falling curves though it sought activators and does not explain the sign; nearly all actives have a fitted effect of over 65% in size; many hits overshoot -100%
Target sequence (P80244 whole entry, looked up): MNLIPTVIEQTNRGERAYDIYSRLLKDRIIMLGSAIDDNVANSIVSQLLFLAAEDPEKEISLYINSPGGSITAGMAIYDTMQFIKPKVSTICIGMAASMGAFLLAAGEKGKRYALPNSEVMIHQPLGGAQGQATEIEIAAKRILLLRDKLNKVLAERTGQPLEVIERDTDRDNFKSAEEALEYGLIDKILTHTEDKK
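ClpP 10 microg/mL final, pH 8 Tris/KCl buffer with BSA, glycerol, Tween-20; compound pinned in; FRET-FV substrate; RT 20 min; Ex320/Em430; ΔFRET vs ADEP 5.8 microM, DMSO, no enzyme.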
Starred values were filed as active, the others as inactive; ? = inconclusive; . = no result given; & = joins results of further samples; [ ] = remark or other dose.

SMILES	TRPV1 PAM	gsp agonist	D2 PAM	Sfp PPTase inh	Menin MLL FP FL	gsp antag	ClpP mod
Cn1cnnc1SCC(=O)c1ccc2c(c1)NC(=O)CO2	1	-17%	-2	.	.	2%	-0.2%
CCCCCOc1ccc(C(O)C(CN2CCOCC2)c2ccccc2)cc1 (stereo not given)	8	-22%	2	4%	-2.2	-2%	.
Nc1nc(N)c2[nH]c(-c3ccccc3)nc2n1	-3	-3%[15.4 µM]	-4	7%	4.8	-5%	-0.4%
Cc1ccc(CC(=O)O/N=C(\N)c2cccc([N+](=O)[O-])c2)cc1	6	?	3	5%	0.6	5%	-0.4%
O=C(O)c1ccc(S(=O)(=O)NCC2CCCO2)cc1 (stereo not given)	4	-13%	0	18%	0.2	-3%	0.4%
CC(C)(C)OC(=O)NN1CC(=O)N2Cc3ccccc3C[C@@H]2C1=O	22	5%	-2	14%	-0.2	-3%	0.3%
COc1ccccc1N1CCc2c(C)nc3c(OC)cccc3c21	-6	-2%	-6	8%	4.3	5%	-26%
O=C(Cc1ccc(Cl)cc1)NN1C(=O)c2ccccc2C1=O	-1	13%	2	9%	4.7	11%	0.0%
Cc1csc(NC(=O)C2CCCN(S(=O)(=O)c3cccnc3)C2)n1 (stereo not given)	3	-18%	-1	4%	-0.8	9%	-0.2%
CSCCC(NS(=O)(=O)c1ccc(Cl)cc1)C(=O)OCc1c(Cl)cccc1Cl (stereo not given)	13	1%	-16	32%[activator]	4.0	2%	-1.8%
Cc1ccc2[nH]c3c(=O)n(CC(=O)NCCc4ccc(Cl)cc4)ncc3c2c1	1	-107%[inhibitor]	-2	6%	3.9	9%	-6.3%&-5.3%
CCN(CC)S(=O)(=O)c1ccc(N2CCOCC2)c(NC(=O)c2ccc(NC(C)=O)cc2)c1	-5	?	-6	9%	-3.2	-3%	-2.2%
CCCCN1C(=O)c2ccc(C(=O)Nc3cccc(C)c3C)cc2C1=O	-6	-11%	9	6%	1.0	-18%	-6.7%
Cc1ccc(NC(=O)C2CC(=O)NC(N3CCCCC3)=N2)cc1Cl (stereo not given)	-6	0%	-28	2%	4.9	-14%	0.9%
CCN(CC(=O)NCc1cccs1)C(=O)CCOc1ccccc1C	-17	-60%[inhibitor]	-6	23%	.	8%	-0.5%
CC(=O)c1c(C)[nH]c(C(=O)OCc2cc(=O)n3cc(Br)ccc3n2)c1C	-3	?	-3	.	.	?	-7.4%
CCc1c(C)nc2[nH]ncn2c1=O	.	19%	-11	.	.	-1%	-2.9%
COCCNC(=O)Cn1c(=O)n(Cc2ccco2)c(=O)c2ccccc21	-6	-6%	5	20%	-1.1	-4%	-1.5%
CCOc1ccc(/C=C/C(=O)Oc2ccccc2)cc1	2	21%[15.4 µM]	-5	8%	0.2	2%	-1.4%
CC(C)C(NS(=O)(=O)c1cccs1)C(=O)NCc1ccccc1 (stereo not given)	-2	9%[15.4 µM]	-6	14%	3.6	-20%	0.3%

A second format for two compounds above:
CCOc1ccc(/C=C/C(=O)Oc2ccccc2)cc1
  TRPV1 PAM: 2
  gsp agonist: 21%[15.4 µM]
  D2 PAM: -5
  Sfp PPTase inh: 8%
  Menin MLL FP FL: 0.2
  gsp antag: 2%
  ClpP mod: -1.4%

CC(C)C(NS(=O)(=O)c1cccs1)C(=O)NCc1ccccc1 (stereo not given)
  TRPV1 PAM: -2
  gsp agonist: 9%[15.4 µM]
  D2 PAM: -6
  Sfp PPTase inh: 14%
  Menin MLL FP FL: 3.6
  gsp antag: -20%
  ClpP mod: 0.3%

(list continues)
SMILES	TRPV1 PAM	gsp agonist	D2 PAM	Sfp PPTase inh	Menin MLL FP FL	gsp antag	ClpP mod
CCCn1c2c(c(O)c(C(=O)Nc3ncccc3O)c1=O)CCCC2	-10	30%	-5	-12%	2.7	-7%	-1.4%
CC(NC(N)=O)C(=O)Nc1ccc(Cl)c(S(=O)(=O)Nc2ccc(Cl)cc2)c1 (stereo not given)	-2	?	-17	13%	-5.1	10%	-1.3%
CCc1ccc(CN(C)C(C)C(=O)NCc2ccccc2)cc1 (stereo not given)	8	?	-9	7%	1.4	8%	.
O=C(Cc1n[nH]c(=O)[nH]c1=O)N/N=C/CCc1ccccc1	6	23%	-15	2%	5.9	9%	-0.5%
Cc1ccc2cc(CN(Cc3nnnn3C3CCCCC3)CC3CCCO3)c(=O)[nH]c2c1 (stereo not given)	8	0%	-5	7%	3.2	-29%	-9.4%
Cc1cccc(C)c1NC(=O)CN1CCN(CCCC(c2ccc(F)cc2)c2ccc(F)cc2)CC1	-5	.	-32	16%	-1.5[24.8 µM]	-18%	-0.3%
COC(=O)c1ccc(Oc2coc3cc(OCc4cnn(-c5ccccc5)c4)ccc3c2=O)cc1	19	?	-7	13%	7.3	-11%	-1.9%
Cc1ccccc1Nc1c(-c2ccncc2)nc2ccc(Br)cn12	9	?	-9	-4%	2.5	-9%	0.9%
CCOC(=O)c1cc(S(=O)(=O)N2CCCC2)cn1C	-3	-32%[inhibitor]	-11	7%	0.2	-1%	0.9%
Cc1cc(NC(=O)CSc2nc3ccccc3c(=O)n2-c2ccccc2)no1	-1	-2%[15.4 µM]	2	6%	7.2	5%	-2.0%
Cc1cccc(OCCC(=O)Nc2cc(S(=O)(=O)N3CCCCC3)ccc2N2CCOCC2)c1	-6	-23%[15.4 µM]	-6	4%	6.0	.	.
CCN(CC)CCNc1c2c(c(C#N)c3nc4ccccc4n13)CCCC2	-5	13%	-40	17%	3.5	-15%	-4.6%
COc1ccc2[nH]c(=O)c(CN(CCc3ccccc3)C(C)=O)cc2c1	-5	3%	-3	2%	0.6	11%	28µM*
CN(CCc1ccccc1)C(=O)c1cccc(NC(=O)Cc2cccc(NC(=O)C3CCCN(S(=O)(=O)c4cccc([N+](=O)[O-])c4)C3)c2)c1 (stereo not given)	.	.	5	.	.	3%	-0.3%
Cc1ccc(S(=O)(=O)N2CCC(C(=O)OCC(=O)N(CCC#N)c3ccc(F)cc3)CC2)cc1C	3	-27%	-12	.	.	-3%	-1.3%
CC1CN(C(=O)c2ccc(OC3CCN(Cc4ccccn4)CC3)cc2)CCN1C (stereo not given)	6	2%[15.4 µM]	-6	-13%	-8.5	2%	-0.6%
CC1=C(C(=O)Nc2ccccc2)C2(CCCCC2)C(C#N)=C(SCC(N)=O)N1	5	4%	-3	10%	0.3	-5%	-0.7%
CCN(CC)CC(=O)Nc1ccc(Oc2ccc(NC(=O)CN(CC)CC)cc2)cc1	-5	-12%[15.4 µM]	-6	-7%	-0.5	2%	.
COc1ccc(CNC(=O)CN2C(=O)c3ccccc3C2=O)cc1	-3	9%	-8	6%	-0.3	4%	-1.1%
CNC(=O)c1cc(C)c(-c2ccccc2)s1	-3	5%	-11	?	4.8	-15%	32µM*
Cc1ccc(S(=O)(=O)N(C)/N=C2/C(=O)N(CC(=O)O)c3ccccc32)cc1	-5	?	5	-12%	3.2	6%	.
CCOc1ccc(N2C(=O)CS/C2=N/NC(=O)COc2ccc3ccccc3c2)cc1	1	-5%	-5	16%	0.7	-6%	-3.7%
COC(=O)C1=C(C)NC(=O)C1(NS(=O)(=O)c1ccc(C)cc1)C(F)(F)F (stereo not given)	3	?	-11	13%	1.2	4%	-0.8%
O=C(NCC(c1ccco1)N1CCN(c2ccccc2F)CC1)C1CCCCC1 (stereo not given)	-10	-18%	-6	.	.	-11%	-1.0%
O=C(Cn1cc(C(=O)c2ccco2)c2ccccc21)NC1CCCC1	?	6%	-16	?	-4.1	-2%	1.7%
O=c1[nH]c(/C=C/c2ccccc2[N+](=O)[O-])nc2ccccc12	7	-17%	-13	5%	-4.7	2%	-6.5%
CCC(C)N(C(=O)CSc1nnc(-c2cccs2)n1C1CC1)C1CCS(=O)(=O)C1 (stereo not given)	-2	-7%[15.4 µM]	-8	.	.	-5%	-27%
O=C(COC(=O)c1ccc2c(c1)S(=O)(=O)N=C1CCCCCN12)NCCc1ccc(F)cc1	-2	-49%[inhibitor]	-9	12%	0.7	6%	2.6%
CC1CCCCN1Cc1cnc(Cl)s1 (stereo not given)	5	0%	-1	7%	1.5	-1%	-1.0%
Cc1cc2nc(C)c(Cl)c(=O)n2[nH]1	0	-2%[15.4 µM]	-1	-4%	-1.0	-9%	.
[O-]/C(=C(\C(=S)NCc1ccccc1)[n+]1ccccc1)c1ccc(Cl)s1	3	15%[15.4 µM]	-8	-36%	5.5	2%	-1.8%
CN(Cc1ccccc1)Cc1nc2c(c(=O)n(C)c(=O)n2C)n1Cc1ccccc1Cl	.	-35%[inhibitor]	-6	17%	5.4	1%	-5.3%
O=C(CCN=C1NS(=O)(=O)c2ccccc21)OCC(=O)c1ccccc1	13	1%	16	.	.	-1%	-0.2%
Cc1ccccc1NC1=C/C(=N\S(=O)(=O)c2ccc(C(=O)O)cc2)c2ccccc2C1=O	-16	-9%	18	-28%	?	21%	.
CCN1C(=O)N(c2ccc(Cl)cc2)C(C)=CC1(C)C	-15	4%	10	15%	5.8	-10%	-0.8%
CC1(c2nnc(-c3ccccc3)o2)CC(c2cccc(Cl)c2)=NO1 (stereo not given)	-18	-15%	-12	-2%	1.5	-4%	-0.5%
CCN(c1ccccc1)c1nc(C#N)nc(N(CC)c2ccccc2)n1	11	?	-3	-6%	-0.7	3%	-11%&-10%
CN=c1scc(C)n1/N=C/c1ccc2c(c1)OCO2	2	-34%[inhibitor]	-7	-5%	3.7	-8%	-0.2%
O=[N+]([O-])c1ccccc1CNC1CCCCCC1	22	-43%[inhibitor]	-8	-19%	0.6	-3%	-1.0%
CCOc1cc(/C=N/N=C(N)N)ccc1OCc1ccc(Cl)cc1	15	33%	11	20µM*	-2.8	12%	-22%
COC(=O)c1c(F)c(F)c(NCCO)c(F)c1F	3	?	-10	-5%	4.2	1%	-0.7%
CCCCS(=O)(=O)c1sc2nc(C)cc(C)c2c1N	-9	4%	5	6%	0.4	-9%	-7.3%
Cc1nc(-c2ccccn2)sc1C(=O)Nc1ccc(Cl)c(Cl)c1	.	?	12	-29%	4.9	-28%	16%
